Assay outcomes: PubChem BioAssay, Southern Research Institute
motility – Vibrio cholerae motility inhibitors, OD read-out (AID 588778); Vibrio cholerae motility, OD read-out; higher % means a stronger effect; test concentration not given here; primary cut-off and reference of the scale not given here; strong numbers were not always called active; 10,000 tested, under 10 active; inhibition, %; hits with a dose series show IC50 in µg/mL; in the data active means confirmed in a dose series
motility viability – recorded beside motility, whose call it bears; inhibition, %; measured here: bacterial viability at 10 ug/mL;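 higher means fewer living bacteria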
* = called active by the depositor; i = inactive. These rows are one share of the data; rates above refer to the full screens.

SMILES	motility	motility viability
CC1(C)CC(=O)C2=C(C1)Nc1ccccc1NC2c1ccc(Br)s1 (configuration not stated)	12%	2
CSc1cccc(NC(=S)NC(=O)CCc2ccccc2)c1	-5%	-1
O=C(NCc1ccncc1)C(=O)Nc1ccc(Br)cc1F	3%	3
CCc1sc(C(=O)NCc2cc(C)n(C)n2)cc1Br	2%	1
Cc1nn(-c2ccccc2)c(C)c1/C=C(\C#N)S(=O)(=O)c1ccccc1	7%	-3
COc1ccc(C(=O)Nc2ccc(N3CCN(C(=O)c4ccco4)CC3)cc2)cc1Br	12%	22
C=COCCNC(=O)Nc1ccc(Cl)cc1Cl	2%	0
Cc1cccc(CN2CCN(c3cccc(C(F)(F)F)c3)CC2)c1	14%	11
Cc1ccc2ncnc(Nc3cccc(C(=O)O)c3)c2c1	-14%	-12
Cc1ccc(C(=O)NCCCN2CCOCC2)c(C)c1	10%	4
Cc1cc(N2C(=O)C(O)=C(C(=O)c3ccco3)C2c2ccc([N+](=O)[O-])cc2)no1 (configuration not stated)	1%	-3
S=c1[nH]nc(C2COc3ccccc3O2)o1 (configuration not stated)	12%	-3
O=C1C(=O)N(Cc2ccccc2Cl)c2ccc(Br)cc21	-1%	51
O=C(O)c1cc(NC(=O)C2CCCCC2)cc(NC(=O)C2CCCCC2)c1	13%	9
CCOC(=O)c1ccc(N2Cc3cc(C)c(C)cc3C2)cc1O	1%	-6
COC(=O)c1ccc(NS(=O)(=O)c2ccc3c(c2)C(Cl)(Cl)C(=O)N3)cc1	-9%	-5
CN(C)c1ccc(Cc2c(NC=O)ccc3ccccc23)cc1	-12%	-4
O=C(Nc1cccc(F)c1)c1ccc(-n2cccn2)cc1	6%	-3
O=S(=O)(Nc1ccc2oc3c(c2c1)CCCC3)c1cccs1	7%	1
Cc1coc(NC(=O)c2sc3nc(-c4ccncc4)cc(C(F)(F)F)c3c2N)n1	11%	30
O=C(CNC(=O)c1ccc(F)cc1)N=Nc1c(O)n(Cc2ccc3c(c2)OCO3)c2ccccc12	-17%	-5
CC1(C)C(=O)OC(c2ccccc2F)C2(CCCCC2)C1=O (configuration not stated)	3%	2
FC(F)(F)c1ccc(Cl)c(NC(=S)NC2CC2)c1	4%	-2
Cc1nc(CSc2nnnn2-c2ccccc2)cs1	8%	1

Complete entries, quoted from the list. Order of screens: motility, motility viability
Shown for CCOC(=O)c1ccc(N2Cc3cc(C)c(C)cc3C2)cc1O → 1%, -6
Shown for CN(C)c1ccc(Cc2c(NC=O)ccc3ccccc23)cc1 → -12%, -4

(continued)
SMILES	motility	motility viability
Cc1cc(CNC(=S)Nc2ccc(S(N)(=O)=O)cc2)nn1C	15%	37
O=C(NCCSc1ccc(Cl)cc1)C1COc2ccccc2O1 (configuration not stated)	24%	0
O=C(CSC1=NC2CCCCC2N1)N1CCOCC1 (configuration not stated)	18%	3
O=C(NC(=S)Nc1ncccc1O)c1ccccc1Br	16%	2
CCOc1cc(-c2conc2N)cc(OCC)c1OCC	0%	-6
Cc1ccc(CN2CC(C(=O)O)CC2=O)cc1 (configuration not stated)	14%	-5
CCOC(=O)c1cc2c(ccc3oc4c(c32)CCCC4)oc1=O	-13%	-4
O=[N+]([O-])c1ccc(S(=O)(=O)NCc2cccs2)cc1	10%	0
Cc1ccc(S(=O)(=O)Nc2ccccc2CNc2ccccn2)cc1	-6%	-9
CCOC(=O)c1ccc(NC(=O)COc2ccc(C(=O)Nc3cccc(C(F)(F)F)c3)cc2)cc1	-6%	27
CCCCOC(=O)Nc1nnc(CSCc2ccc(Cl)cc2)s1	13%	10
C=CCNC(=S)N1CCC(C(N)=O)CC1	4%	-10
O=C(CSc1nc2cc(C(F)(F)F)ccc2s1)NCC(=O)c1ccccc1	8%	33
COC(=O)Nc1cc(C(F)(F)F)ccc1N1CCN(c2ccccc2)CC1	-20%	-9
O=C(COc1ccc(Br)cc1)NC(=S)Nc1ccccc1N1CCOCC1	-2%	-7
O=C(c1ccco1)N1CCN(C(=O)C2CC(c3ccc(Cl)c(Cl)c3)=NO2)CC1 (configuration not stated)	-16%	-1
COC(=O)c1cc(C(=O)OC)cc(S(=O)(=O)O)c1	-11%	27
CCn1c(C)nc2cc(C(=O)N(C)C)ccc21	-16%	-8
Cc1ccc(C(=O)COC(=O)c2cc(=O)[nH]c3ccccc23)cc1C	12%	-6
O=C(c1ccc(S(=O)(=O)N2CCOCC2)cc1)N1CCN(c2ncccn2)CC1	-18%	-7
O=C(c1cccs1)n1nc(-c2ccco2)nc1SCc1ccccc1	3%	2
CN(c1c[nH]c(=O)[nH]c1=O)C1CCCCC1	-17%	1
CC(C)c1cccc(C(C)C)c1NC(=O)/C=C/c1cccc([N+](=O)[O-])c1	12%	-2
Cc1cc(Br)c(NC(=O)CSc2ccc(Cl)cc2)cc1C	-1%	6
CCCCc1ccc2nc(NC(=O)c3ccccc3[N+](=O)[O-])sc2c1	-12%	-11
Fc1ccc(-n2nnnc2SCc2ccccn2)cc1	2%	1
CC1CCCC(C)N1C(=O)C(Cl)(Cl)Cl (configuration not stated)	-11%	-12
O=C(NC(=S)Nc1ccccc1I)C(c1ccccc1)c1ccccc1	-9%	-5
Cc1nc(C)c(NC(=O)Nc2ccc(F)cc2)cc1NC(=O)Nc1ccc(F)cc1	1%	-2
O=C(NC(=S)NCc1ccccc1)C1CC1	12%	6
Cc1[nH]c2ccccc2c1CCNC(=O)Cn1cnc([N+](=O)[O-])n1	1%	-2
Cn1c(Cc2cccs2)nnc1SCc1nc2ccccc2[nH]1	-2%	3
COc1cc2[nH]c(=S)n(CCSc3ccc(Cl)cc3)c(=O)c2cc1OC	-9%	-3
Cc1cc(=O)[nH]c(SCC(=O)Nc2ccnc3ccccc23)n1	34%	5
Cc1cc(C)c(C(=O)c2ccc(C(=O)N(C)C)cc2)c(C)c1	-10%	-7
COC(=O)c1cc(NC(=O)c2ccccc2N(Cc2ccccc2)S(C)(=O)=O)ccc1Cl	4%	1
O=C(Cc1c(F)cccc1Cl)Nc1nc2c(s1)CCCC2	14%	21
CC(=O)c1cccc(NS(C)(=O)=O)c1	8%	8
CS(=O)(=O)Nc1ccc(C(=O)N2CCC(Cc3ccccc3)CC2)cc1	-11%	-4
COc1ccc(-c2csc(C)n2)cc1Br	17%	3
CN(C)c1ccc(/C=C2/C(=O)NC(=O)N(CC3CCCO3)C2=O)cc1 (configuration not stated)	-2%	-4
O=C(Nc1ccccc1-c1ccccc1)c1ccccc1	-4%	-2
O=C(CN1C(=O)c2ccccc2C1=O)N1CCN(c2ccccn2)CC1	5%	5
COc1ccccc1C(=O)Nc1ccc(-c2cn3ccsc3n2)cc1	5%	7
C=C(C)Cn1c(-c2ccc(N(C)C)cc2)nc2ccccc21	10%	6
O=C(OCc1c(F)cccc1Cl)c1ccc(Br)o1	-1%	-4
Cc1cc2ncn(S(=O)(=O)N(C)C)c2cc1C	0%	-4
CCCNc1nc(Nc2ccc(C)cc2)nc(OC)n1	19%	13
C=CCn1c(SCc2ccccc2)nnc1-c1ccc2[nH]c(C)c(C)c2c1	19%	12
C=CCOc1ccc(Br)cc1CO	-2%	6
CCNCC(O)CN1CCC(C)CC1 (configuration not stated)	2%	-2
CC1(C)Cc2nc3nc(SCC(=O)Nc4ccccc4)nc(N)c3cc2CO1	17%	-10
Cc1nc2ccccc2c(=O)n1Cc1c(F)cccc1Cl	1%	-4
Nc1nc(-c2ccccc2)cc(N2CCCCC2)n1	i	1
Cc1ccc(C(=O)c2cccc(N)c2)cc1C	111%	27
CCOc1cc(CNCCc2c[nH]c3ccccc23)cc(Cl)c1OCC(N)=O	23%	8
O=C(Nc1ccc(N2CCCC2=O)cc1)c1ncn[nH]1	-3%	-6
O=C(CNC(=O)c1cccs1)OCc1ccc(S(=O)(=O)c2ccccc2)cc1	11%	2
COC(=O)C(NC(=O)C(F)(F)F)C12CC3CC(CC(C3)C1)C2 (configuration not stated)	4%	24
C=CCn1c(CCCN2C(=O)c3cccc4cccc(c34)C2=O)nnc1SCC(=O)NCc1cccnc1	1%	-2

The results go on.
SMILES	motility	motility viability
CCCc1cc(C(=O)N2CCN(c3ccccc3C)CC2)cs1	14%	37
Cc1cc(C)nc(Nc2nc(N)c3ccccc3n2)n1	5%	9
S=C(NCc1ccc(Cl)cc1)NCc1cccs1	37%	4
CCC(OC(C)=O)c1cc2c(cc1[N+](=O)[O-])OCCO2 (configuration not stated)	8%	-2
O=S(=O)(c1ccc(Br)c2nsnc12)N1CCOCC1	-7%	-8
CC(Sc1nc(-c2cccnc2)ccc1C#N)C(=O)O (configuration not stated)	3%	-2
CCOC(=O)C1CCCN(C(=O)C2CC(c3cc(Cl)c(OC)cc3OC)=NO2)C1 (configuration not stated)	5%	-1
CC(C)C(NC(=O)/C=C/c1ccc2c(c1)OCO2)C(C)C	1%	-2
O=C(NCc1ccc(N2CCCC2=O)cc1)Nc1ccccc1	4%	-2
O=C(Nc1cccc(Cl)c1N1CCOCC1)c1sc2ccccc2c1Cl	-12%	-9
CCOC(=O)c1cnc2c(ccc3ccccc32)c1Cl	-3%	-7
COCCn1c(C)cc(C(=O)CSc2nc(C)cc(C)c2C#N)c1C	8%	-3
CCn1c(Sc2c(-c3ccccc3)c3ccc(Cl)cc3[nH]c2=O)nnc1-c1cccnc1	-11%	-5
Cc1ccc(NC(=O)c2ccc3c4c(cccc24)CC3)nc1	-16%	-9
COC(=O)c1ccccc1NC(=O)Nc1ncn(Cc2cccc(C(F)(F)F)c2)n1	-5%	0
CC(C(=O)Oc1ccc([N+](=O)[O-])cc1)N1C(=O)c2ccccc2C1=O (configuration not stated)	23%	3
C=CCOc1cc(Br)c(C(=O)O)cc1OCC	8%	-2
O=C(CSc1nc2ccccc2o1)Nc1ccc(Br)cc1Cl	-3%	-4
Cc1cccnc1Nc1nc(-c2ccc(O)c(O)c2)cs1	19%	3
O=C(CCC1CCCC1)Nc1ccncc1	21%	6
O=C(CSc1nc2ccccc2n1S(=O)(=O)c1ccccc1)N1CCCC1	1%	-1
Cc1ccnc(NC2(C(F)(F)F)N=C(c3ccccc3)NC2=O)c1 (configuration not stated)	10%	16
Cc1cc(C)c(OCC(=O)Nc2ncc(I)cc2C)c(Cl)c1	1%	9
Cc1cc(C)nc(/N=C(/NC(=O)C(Cc2ccccc2)N2C(=O)C3CCCCC3C2=O)Nc2cccc(Cl)c2)n1 (configuration not stated)	-3%	-4
CCOC(=O)c1ccc(NC(=O)COc2cc(Br)c(CO)cc2OC)cc1	-20%	-4
CCN(CC)CC(=O)NCc1ccccc1	-11%	-5
Cc1ccc(NC(=O)Cn2cc(C=O)c3ccccc32)cc1[N+](=O)[O-]	11%	5
CCCCOc1ccc(NC2=NC3(CCCCC3)N=C(N)N2)cc1	21%	10
COc1cc(/C=C2/C(=O)N(c3ccc(Cl)c(C(=O)O)c3)N=C2C)cc2sc(=O)oc12	-4%	-5
CC1=C(C(=O)Nc2ccccc2F)C(c2ccco2)C(C#N)=C(SCC(=O)Nc2ccc(Br)cc2)N1 (configuration not stated)	-16%	-11
CC1(C)CC(n2[nH]c(=O)cc2N)CCO1 (configuration not stated)	-7%	-3
O=C1C=C(NCc2ccncc2)CC(c2ccccc2)C1 (configuration not stated)	-1%	-6
O=S(=O)(NCc1ccc2c(c1)OCO2)c1ccc(Br)s1	6%	-2
CC(=O)N1CCN(c2ccc(Oc3ccc(C(F)(F)F)cn3)cc2)CC1	9%	-2
COc1cc(NC(=O)CS(=O)(=O)Cc2ccccc2)c(OC)cc1Cl	-10%	1
O=C(NC(=S)NCC1(c2ccccc2)CCOCC1)c1ccccc1	8%	0

Of the compounds above, eight have a nitro group on carbon.
SMILES	motility	motility viability
Cc1cc(N2C(=O)C(O)=C(C(=O)c3ccco3)C2c2ccc([N+](=O)[O-])cc2)no1 (configuration not stated)	1%	-3
O=[N+]([O-])c1ccc(S(=O)(=O)NCc2cccs2)cc1	10%	0
CC(C)c1cccc(C(C)C)c1NC(=O)/C=C/c1cccc([N+](=O)[O-])c1	12%	-2
CCCCc1ccc2nc(NC(=O)c3ccccc3[N+](=O)[O-])sc2c1	-12%	-11
Cc1[nH]c2ccccc2c1CCNC(=O)Cn1cnc([N+](=O)[O-])n1	1%	-2
CCC(OC(C)=O)c1cc2c(cc1[N+](=O)[O-])OCCO2 (configuration not stated)	8%	-2
CC(C(=O)Oc1ccc([N+](=O)[O-])cc1)N1C(=O)c2ccccc2C1=O (configuration not stated)	23%	3
Cc1ccc(NC(=O)Cn2cc(C=O)c3ccccc32)cc1[N+](=O)[O-]	11%	5

New compounds follow:
SMILES	motility	motility viability
COc1nc(SC)nc2sc3c(c12)CCC3	7%	5
CC(NC(=S)NCCc1ccc(S(N)(=O)=O)cc1)C12CC3CC(CC(C3)C1)C2 (configuration not stated)	13%	6
O=C(c1ccc(Br)o1)N1CCN(c2cccc(C(F)(F)F)c2)CC1	11%	1
CCn1cc(C(=O)O)c(=O)c2cnc(N3CCN(C(=S)NC(=O)c4c(-c5ccccc5)noc4C)CC3)nc21	13%	4
N#CC1=C(N)Oc2n[nH]c(C(F)(F)F)c2C1c1ccccc1OCc1ccccc1Cl (configuration not stated)	-7%	1
O=C1CC(Sc2nc3ccccc3s2)C(=O)N1c1ccccc1C(F)(F)F (configuration not stated)	62%	56
C=CCn1c2ccccc2c2nnc(SCC(=O)Nc3cc(C)on3)nc21	-2%	-8
C=CCN(C(=O)N1c2ccccc2Sc2ccccc21)c1nnc(-c2ccc(Cl)cc2)s1	-6%	9
O=C1c2ccccc2C(=O)N1CN(Cc1ccc2c(c1)OCO2)CN1C(=O)c2ccccc2C1=O	14%	10
Cc1ccc(NNC(=O)C(c2ccccc2)c2ccccc2)cc1	7%	10
O=C(CCN1CCC(c2ccccc2)C1)c1ccco1 (configuration not stated)	10%	4
Cc1cccc(N2CCN(C(=O)C(Cl)(Cl)Cl)CC2)c1C	4%	-2
CCCOc1c(Cl)cc(C(=O)N2CCOCC2)cc1OCC	-15%	-4

4 compounds from above, arranged by heavy-atom count, rising:
SMILES	motility	motility viability
Cc1cccc(N2CCN(C(=O)C(Cl)(Cl)Cl)CC2)c1C	4%	-2
C=CCn1c2ccccc2c2nnc(SCC(=O)Nc3cc(C)on3)nc21	-2%	-8
N#CC1=C(N)Oc2n[nH]c(C(F)(F)F)c2C1c1ccccc1OCc1ccccc1Cl (configuration not stated)	-7%	1
O=C1c2ccccc2C(=O)N1CN(Cc1ccc2c(c1)OCO2)CN1C(=O)c2ccccc2C1=O	14%	10
